# Assay outcomes from PubChem.
# HPGD inh – inhibitors of human 15-hydroxyprostaglandin dehydrogenase (HPGD) | P15428 | purified HPGD, NADH fluorescence kinetic, PGE2 substrate | Potency, µM, for inactives: at the top dose activity change, negative = inhibition, usual class: inhibitors | actives 4.3% (n = 150,000); active = well fitted inhibition curve with a large enough effect (not every such curve was filed as active); inconclusive = small, poorly fitted or top-dose-only effect, or another doubt; inactive = no such curve, though single readings can be large or run the other way;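 further: top concentration of the series not given in the record; plate controls included wells without enzyme; inactives centre near -10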
# Target sequence (P15428 whole entry, looked up): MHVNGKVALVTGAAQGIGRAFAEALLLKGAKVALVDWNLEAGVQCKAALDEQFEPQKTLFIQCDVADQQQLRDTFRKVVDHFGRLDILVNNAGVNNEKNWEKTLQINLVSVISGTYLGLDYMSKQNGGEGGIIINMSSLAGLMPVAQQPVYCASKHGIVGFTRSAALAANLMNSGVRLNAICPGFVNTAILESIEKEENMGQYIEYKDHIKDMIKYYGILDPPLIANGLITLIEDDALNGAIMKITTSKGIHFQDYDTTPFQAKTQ
#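 NADH formation kinetics: reaction with 30 uM PGE2 and 1 mM NAD+ (final), 20 nM enzyme, Tris-HCl pH 8 with Tween 20, after 15 min compound preincubation at room temperature. Fluorescence change, last versus first of five reads.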
# The depositor's hits bear a star; u = inconclusive; & = joins results of further samples. On the % scale 0 is the no-effect control and ±100 the full control effect; potency means the concentration at half of the fitted maximal effect.
canonical_smiles,HPGD inh
COc1cc(C2N(c3cc(C)on3)C(=O)C3CCCN32)cc(OC)c1OC (centres undefined),-8%
COc1ccc(N2C(=O)CC(N3CCC(O)(c4ccc(Br)cc4)CC3)C2=O)cc1 (centres undefined),-5%
CCC(=O)OC1(C)C(=O)C=C2C=C(CCCNC(=O)OC(C)(C)C)OC=C2C1=O (centres undefined),-8%
COC(=O)C1=C(N)c2c(F)cccc2C1(C#N)c1ccc(F)cc1 (centres undefined),-28%
Cc1ccccc1OCc1nnc(SCC(=O)Nc2ccc3c(c2)OCO3)n1C,-16%
NC(=O)Cn1c(=O)n(Cc2ccco2)c(=O)c2c3c(sc21)CCCCC3,-18%
CCCN(CCC)S(=O)(=O)c1ccc(C(=O)O)cc1,-7%&1%&-3%&-2%
COc1ccc(N2C(=O)CC(NCc3cccc(F)c3)C2=O)cc1 (centres undefined),-7%
O=C(CN1C(=O)C2CC=CCC2C1=O)Nc1nc2ccccc2[nH]1 (centres undefined),-5%
O=C(CO/N=C1\CCCc2nonc21)Nc1ccccc1Cl,-7%
COC(=O)NNC(=O)c1ccccc1C,-18%
COc1ccc(-c2csc(Nc3ccc(S(N)(=O)=O)cc3)n2)cc1,-8%
Fc1ccccc1CCNc1nnnn1-c1ccccc1,-18%
CCn1nnnc1-c1ccc(OC)c(S(=O)(=O)NCc2ccccc2)c1,20µM*
Cc1ccc(CNC(=O)C2(C)Oc3ccccc3NC2=O)cc1 (centres undefined),-6%
CCCCCCCCCCCCCCC/C=C/[C@@H](O)[C@H](NC(=O)CCCCCCCCCCCCC)OC (tested in a mixture with another compound),-8%
COc1cccc(NC(C(=O)Nc2cccc(C(C)=O)c2)c2ccccc2)c1 (centres undefined),-8%
O=C(Nc1ccccc1F)c1ccccc1-c1ccc(C(F)(F)F)cc1,-5%
N/C(=N\OC(=O)c1ccc(F)cc1)c1ccccc1,-27%
CCc1ccc2c(COC(=O)c3n[nH]c4ccccc34)cc(=O)oc2c1,u
N#Cc1ccc(CN2CCC3(CC2)CCN(C(=O)c2cccc(F)c2)CC3)cc1,-3%
O=C(c1cc(-c2ccc(Cl)c(Cl)c2)on1)N1CCN(c2ccccc2)CC1,-4%
Cc1ccc2c(CC(=O)Nc3nc(C)cs3)coc2c1,u
CC12CCCCN1CCCc1c2[nH]c2ccccc12 (centres undefined),-9%
Cc1nn2cc(-c3ccccc3)nc2s1,-6%
COc1cccc(C(=O)Oc2cc(C)[nH]c(=O)c2[N+](=O)[O-])c1OC,1%
CC12CCC(C(=O)O)(c3nc(C#N)c(C#N)nc31)C2(C)C (centres undefined),-13%
COc1cccc(NC(=O)CSc2nccn2-c2cccc(OC)c2)c1,-14%
CCOC(=O)c1[nH]c2ccc(OC)cc2c1NC(=O)CCN1CCC(C)CC1,u
COc1ccc(N=Nc2nc(-c3ccccc3)c(-c3ccccc3)[nH]2)cc1,-10%
CN(Cc1nc(-c2cccnc2)no1)S(=O)(=O)c1ccccc1,-11%
CC(C)C(=O)N1CCN(c2ccc(NC(=O)c3ccc4c(c3)OCCO4)cc2Cl)CC1,-12%
CN(C)c1ccc(/C=[N+](\[O-])C(C)(C)/C=N/O)cc1,-19%
O=C(NCc1ccco1)/C(=C/c1cccnc1)NC(=O)c1cccc(Br)c1,-7%
FC(F)(F)c1cccc(N2CCN(C(=S)NC3CCCC3)CC2)c1,-2%
CC(=O)N1CCc2ccc(S(=O)(=O)N3CC(C)OC(C)C3)cc21 (centres undefined),-10%
Cc1nnc(SCCC#N)n(CCC#N)c1=O,-5%
C=C1C(=O)OC2C[C@@]3(C)CCCC(=C)[C@@H]3CC12 (some centres undefined),-4%
O=C(Nc1ccccc1)N1CCCC2(CCN(C(=O)c3ccco3)CC2)C1,1%
O=C(N/C(=C/c1ccco1)C(=O)N1CCCCC1)c1cccs1,-20%
O=C1[C@H]2CCC=C[C@H]2[C@H](c2cccc(Br)c2)N1Cc1ccccc1,-10%
COc1ccc(-n2nc3c(c2NC(=O)C2CC2)CS(=O)C3)cc1 (centres undefined),-4%
CO/N=C(\CS(=O)(=O)Cc1ccc(OC)cc1)c1ccc(Cl)cc1,-9%
CCOC(=O)C1=C(C)NC2=C(C(=O)CCC2)C1c1cn(Cc2ccc(Cl)cc2Cl)nc1-c1ccccc1 (centres undefined),u
Cc1ccccc1C(=O)N1CCN(c2ccc(NC(=O)CSc3ccc(Cl)cc3)cc2)CC1,-13%
CCOc1ccc2oc(-c3ccccc3)c(C(=O)N3CCN(CCO)CC3)c2c1,u
CCCc1nc(SCC(=O)c2ccccc2)c2c(=O)n(C)c(=O)n(C)c2n1,-19%
O=C1NC(=O)C(c2cn(-c3ccccc3)nc2-c2ccc(F)cc2)N1 (centres undefined),-14%
CC(C)(NO)/C(=N\O)c1ccccc1,-14%
O=C(NCc1cccnc1)c1ccc(=O)oc1,-17%
CCOC(=O)c1c(NCC(C)C)c2ccccc2[nH]c1=O,-12%
CC(C)c1ccccc1NC(=O)c1ccccc1NC(=O)C1CCCCC1,-9%
Cc1ccc(Cn2c(=O)c3c(nc4n3CCCN4Cc3ccccc3)n(C)c2=O)cc1,u
COCCCNC(=O)c1cccs1,-11%
CC(C)NC(=O)Cn1c(=O)c2c(ncn2Cc2ccccc2)n(Cc2ccccc2)c1=O,-10%
O=C(NCCc1cn2ccsc2n1)c1cccs1,25µM*
CCCS(=O)(=O)NCc1ccc2c(c1)cc(C)n2C,-18%
CC#CCN1c2ccccc2[C@]23C[C@@H](C(=O)OC)N(S(=O)(=O)c4c(C)noc4C)C2=NC(C(=O)OC)=C(C(=O)OC)[C@H]13,-15%
Cc1ccc(S(=O)(=O)N/N=C/C(C)(C)CO)cc1,3%
Cc1ccc(-c2nc3sc(C(N)=O)c(N)c3c3c2CCCC3)cc1,u

# An excerpt of these results, with values ahead of the structure.
HPGD inh	Structure
-11%	CN(Cc1nc(-c2cccnc2)no1)S(=O)(=O)c1ccccc1
-12%	CC(C)C(=O)N1CCN(c2ccc(NC(=O)c3ccc4c(c3)OCCO4)cc2Cl)CC1
-19%	CN(C)c1ccc(/C=[N+](\[O-])C(C)(C)/C=N/O)cc1

# Next part
canonical_smiles,HPGD inh
CCOC(=O)C(=O)NC(C)CCc1ccccc1 (centres undefined),-4%
COc1ccccc1C(=O)NCC(=O)N/N=C/c1cc(Br)ccc1OC(=O)/C=C\c1ccco1,-22%
CC1OC(Nc2cccc3ccccc23)C(O)C(O)C1O (centres undefined),u
CCCCN(C)C(=O)c1cn(CC)c2nc(C)ccc2c1=O,-16%
O=C(N/N=C/c1cccc(F)c1)c1csc2c1CCCC2,-14%
Cc1cccc(-c2noc(CN(C(=O)CCc3ccccc3)C(C)C)n2)c1,-7%
COc1ccc(CCNC(=S)Nc2cc(C)cc(C)c2)cc1,-6%
Cc1cc(C)cc(Oc2coc3cc(OC(=O)c4cccs4)ccc3c2=O)c1,-5%
CS(=O)(=O)N1CCC(c2noc(-c3ccc(C(F)(F)F)cc3)n2)CC1,-6%
CCCn1c(=O)c(Cc2ccccc2)c(O)c2ccccc21,u
COc1ccc(-n2cccc2/C=C/[N+](=O)[O-])cc1,35µM*
O=C(O)[C@@H]1CCCN1c1ncnc2sc3c(c12)CCC3,-9%
Cc1cc(C)cc(N(CC(=O)N/N=C/c2ccncc2)S(=O)(=O)c2ccccc2)c1,-17%
O=C(O)CSc1nnnn1-c1ccc2c(c1)OCCO2,-7%
COc1cccc(Oc2cn[nH]c2-c2ccc(OC)cc2O)c1,-25%
CC1=NN(Cc2ccccc2)C(=O)C1,-10%
O=S(=O)(c1cc(Cl)ccc1Cl)N1CCN(Cc2ccc3c(c2)OCO3)CC1,-13%
Cc1ccc(NC(=O)c2ccc(NCCCN3CCOCC3)c([N+](=O)[O-])c2)cc1Cl,-15%
CS(=O)(=O)N1CCCC(C(=O)NC2CCCCCCC2)C1 (centres undefined),0%
C=C(C)COc1ccc(-c2nc(N)ncc2Oc2ccccc2OCC)c(O)c1,-29%
C=CCNC(=O)c1ccc(N(CC=C)S(C)(=O)=O)cc1,-18%
O=C(CCSc1ccc(Cl)cc1)N1CCN(c2ncccn2)CC1,-6%
CCOC(=O)CSc1cc(=O)n(C)c2cc(Cl)ccc12,-18%
COc1cc2[nH]c(=O)n(CCC(=O)NC3CCN(Cc4ccccc4)CC3)c(=O)c2cc1OC,u
CCC(C)(C)n1nnnc1C(c1ccccn1)N1CCN(c2cccc(OC)c2)CC1 (centres undefined),-6%
Cc1c(/C(O)=C2\C(=O)C(=O)N(CCN(C)C)C2c2cccnc2)cnn1-c1ccccc1 (centres undefined),-18%
CC1CN(C2CCN(S(=O)(=O)c3ccc(F)cc3)CC2)CC(C)O1 (centres undefined),-2%
O=C(N1CCN(Cc2ccccc2)CC1)C(Cl)(Cl)Cl,2%
FC(F)(F)c1ccc(N=Cc2sc(N3CCOCC3)nc2-c2ccccc2)cc1,-16%
CSc1nc(-c2ccccc2)ccc1C(N)=O,-15%

# Look-ups from the list:
# Entry for `Cc1c(/C(O)=C2\C(=O)C(=O)N(CCN(C)C)C2c2cccnc2)cnn1-c1ccccc1` (centres undefined) under HPGD inh: -18%
# Entry for `CCC(C)(C)n1nnnc1C(c1ccccn1)N1CCN(c2cccc(OC)c2)CC1` (centres undefined) under HPGD inh: -6%
# Entry for `COc1ccccc1C(=O)NCC(=O)N/N=C/c1cc(Br)ccc1OC(=O)/C=C\c1ccco1` under HPGD inh: -22%
# Entry for `Cc1cc(C)cc(N(CC(=O)N/N=C/c2ccncc2)S(=O)(=O)c2ccccc2)c1` under HPGD inh: -17%
# Entry for `Cc1cccc(-c2noc(CN(C(=O)CCc3ccccc3)C(C)C)n2)c1` under HPGD inh: -7%
# Entry for `COc1cccc(Oc2cn[nH]c2-c2ccc(OC)cc2O)c1` under HPGD inh: -25%
# Entry for `O=C(CCSc1ccc(Cl)cc1)N1CCN(c2ncccn2)CC1` under HPGD inh: -6%

# The main list resumes, starting three compounds before the break.
molecule | HPGD inh
O=C(N1CCN(Cc2ccccc2)CC1)C(Cl)(Cl)Cl | 2%
FC(F)(F)c1ccc(N=Cc2sc(N3CCOCC3)nc2-c2ccccc2)cc1 | -16%
CSc1nc(-c2ccccc2)ccc1C(N)=O | -15%
COc1ccc(CNCc2ccco2)cc1OCc1ccccc1 | -11%
Cc1c(C(=O)N2CCCCC2)sc(N)c1C#N | 13µM*
CCc1nnc(N/N=C/c2c(Cl)cccc2Cl)n1N | u
Cc1ccc2nc(-c3ccccc3)cc(C(=O)NCCCn3ccnc3)c2c1 | -22%
CCCC(=O)C1=C(c2ccccc2)C(C#N)(C#N)C(C#N)=C1N | 1.4µM*
O=C(NN=C1c2ccccc2-c2ccccc21)c1ccccc1Br | -16%
N#CCC(=O)NN=C1CCCCCCCCCCC1 | -12%
CC(C)NC(=O)N1CCC2(CC1)CCN(C(=O)c1cc(C(F)(F)F)cc(C(F)(F)F)c1)CC2 | -11%
COCC(C)n1c(C)cc(C(=O)Cn2c(=O)oc3ccccc32)c1C (centres undefined) | -1%
CC(C)C(=O)NC(c1cccs1)c1cc([N+](=O)[O-])c2cccnc2c1O (centres undefined) | -22%
Nc1nc(SCCOc2ccccc2)n[nH]1 | -2%
O=C(CSCC(=O)N1CCCCC1)Nc1nc(-c2ccccc2)c(-c2ccccc2)s1 | u
COC(=O)C1=NN(C(C)=O)C2(CC(=O)N(c3cc(C)cc(C)c3)C2=O)C1 (centres undefined) | 4%
O=C1C2C3CCCC3=C3CCCC3C2C(=O)N1c1ccc(Cl)cc1 (centres undefined) | -7%
COc1cc(COCC(O)CN2CCN(CCN3C(=O)c4cccc5cccc(c45)C3=O)CC2)cc(OC)c1OC (centres undefined) | -24%
CC(=O)NCCc1ccc(S(=O)(=O)N2CCCC2)cc1 | -7%
Cc1nnc(SCC(=O)N2CCN(S(=O)(=O)c3ccc(Cl)cc3)CC2)n(N)c1=O | -10%
CC(C)n1nc(C(=O)Oc2ccc(Cl)cc2)c2ccccc2c1=O | u
O=C(COC(=O)c1ccccn1)Nc1c(Cl)cccc1Cl | -1%
CCOC(=O)c1c(C)[nH]c(C)c1C(=O)Cn1nnc(-c2ccccc2C)n1 | -7%
COc1ccc(N2CCN(C(=O)CSc3ncccc3-c3nc4ccccc4[nH]3)CC2)cc1 | -16%
c1ccc(-c2noc(-c3cccnc3)n2)cc1 | -14%
Cc1ccc(/C(O)=C2/C(=O)C(=O)N(Cc3cccnc3)C2c2ccccn2)cc1 (centres undefined) | -7%
CCOC(=O)C1CCCN(C(=O)Cc2ccc(Cl)cc2)C1 (centres undefined) | -3%
CN1/C(=C\C(=O)c2cncc(Br)c2)C(C)(C)c2ccccc21 | -11%
O=C(CCNS(=O)(=O)c1ccc(Br)s1)N1CCCCC1 | -9%
C=CCOC(=O)Nc1c(C(=O)OC)[nH]c2ccccc12 | -14%
COC(=O)C1=C(C)OC(N)=C(C#N)C1c1cccnc1 (centres undefined) | -2%
COC(=O)C1=C(C)Nc2sc(C(N)=O)c(N)c2C1c1ccncc1 (centres undefined) | u
CCc1cc([N+](=O)[O-])cc(CC)c1N | -5%
CCOc1c(C=C(C#N)C#N)c2ccccc2n1CC | -7%
Cc1cccc(/C=N\NC(=O)c2sccc2-n2cccc2)c1 | -3%
Cc1cccc(C)c1NC(=O)CSc1nc(-c2ccco2)cc(C(F)(F)F)n1 | -12%
COc1cc(-c2nc(-c3ccccc3)c(-c3ccc(F)cc3)[nH]2)cc2c1OCO2 | u
COc1ccc(S(=O)(=O)Nc2ccc(Oc3ncccn3)c(Cl)c2)cc1 | 14µM*
Cc1cc(C(C)(C)C)oc1C(=O)N(CC(=O)NC1CCCC1)c1cccc(C(F)(F)F)c1 | -27%
CCOCCCNS(=O)(=O)Cc1ccccc1 | -7%
O=C1OCCC1Sc1nnc(-c2ccc(Cl)cc2)n1Cc1ccccc1 (centres undefined) | 1%
O=C(O)CCC(=O)Nc1ccc(C(=O)OC2CCCCC2)cc1 | -24%
COc1ccc(S(=O)(=O)Cc2ccc(C(=O)NCCCN(C)c3ccccc3)o2)cc1 | 2%

# An excerpt; the hit share may differ from the screen's.
